# Screening results: PubChem, ICCB-Longwood Screening Facility, Harvard Medical School
# MgrA DNA FP – alters Staphylococcus aureus MgrA binding to DNA; actives 0.13% (n = 84,000); inhibition, %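 (about 10 µg/mL by stock and volumes)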; fluorescence polarization;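 active = above 50% in either of two replicates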;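 also: 0% = protein plus DNA without compound and 100% = DNA alone without protein; higher means less MgrA bound to DNA so lower polarization; one replicate is shown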
# S aureus helic – S. aureus DNA helicase inhibition; inhibition, %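 (tested at about 80 µM)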; actives 0.05% (n = 120,000); AID 485395; purified S. aureus helicase, fluorescence unwinding assay; about half of the hits fall short of the stated cut;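 active = both duplicates at 50% or more, or one of them with a favoured structure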;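 also: 0% = mean of negative control wells and 100% = mean of positive control wells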
# Starred values were filed as active, the others as inactive; x = no result given.
MgrA DNA FP	S aureus helic	SMILES
0.8	-2.0	CN(CC(=O)NCc1ccccc1)S(=O)(=O)c1ccc2nc(-c3ccccc3)[nH]c2c1
-1.2	8.0	Cc1onc(-c2ccccc2)c1C(=O)Oc1cccnc1
0.2	x	O=C1CC(c2ccc3c(c2)OCO3)CC2=C1C(c1ccc(C(F)(F)F)cc1)Nc1ccccc1N2 (stereo not drawn)
-2.8	1.0	CN(C(=O)CC1(CC(=O)O)CCCC1)C1CCCCC1
x	-8.0	CN(Cc1nc2ccccc2c(=O)[nH]1)Cc1nc2scc(-c3cccs3)c2c(=O)[nH]1
x	-10.0	CCc1ccc(C(=O)CN2C(=O)C(C)N(c3ccc(C)cc3)C2=O)cc1 (stereo not drawn)
0.5	-17.0	CCN1C(=O)/C(=C/C=C2/Sc3ccccc3N2CC)SC1=S
x	-5.0	Cc1cc(-c2csc(-c3ccccc3)n2)c(C)n1-c1cccc(S(=O)(=O)N2CCOCC2)c1
-2.6	21.0	O=C1C=C(NCc2ccccc2)C2(CCCCC2)O1
2.1	3.0	CC(C)OCC(O)Cn1c(N2CCCCCC2)nc2c1c(=O)n(C)c(=O)n2C (stereo not drawn)
1.9	7.0	O=C1Nc2ccccc2C(O)(C(=O)N2CCCCC2)N1c1ccccc1 (stereo not drawn)
-2.1	x	Fc1cccc(-c2csc(COc3ccccc3Cl)n2)c1
0.1	4.0	Cc1cc(NC(=O)C2CCCCC2)no1
0.6	14.0	C=CCn1c(=O)[nH]c(=O)n(CC=C)c1=O
0.4	-13.0	COc1ccc(C2OCc3ccccc3N2C(=O)c2cccc(OC)c2)cc1 (stereo not drawn)
-1.3	-11.0	CC(C)C(c1nnnn1Cc1ccccc1)N1CCN(c2ccccc2)CC1 (stereo not drawn)
x	-17.0	Cc1onc(-c2ccccc2Cl)c1C(=O)NCC1CCN(C(=O)OC(C)(C)C)CC1
x	3.0	O=C(CSc1nc2ccccc2n1CCc1ccccc1)c1cccs1
1.3	-21.0	O=C(NCCCN1CCOCC1)c1cc(-c2ccc(F)cc2)nc2ccccc12
x	0.0	CC(C)(C)c1cc(CCC(=O)N2CCNCC2)c(C(C)(C)C)cc1O
-0.6	14.0	O=C(O)CCN1C(=O)COc2ccc(Cl)cc21
0.4	11.0	COc1ccccc1NC(=O)c1cc2ccccc2oc1=Nc1ccccc1F
x	-19.0	CC(=O)N1CCc2cc(C(=O)CN3CCOCC3)ccc21
-3.8	22.0	CCN(Cc1ccccc1)C(=O)CSc1ccccc1C(=O)O
x	0.0	CC1CCCCC1NC(=O)NC(=O)CSc1nc2c(cnn2-c2ccccc2)c(=O)[nH]1 (stereo not drawn)
x	-6.0	COc1cc(C#N)ccc1OCC(=O)NCC(C)C
-0.6	5.0	Cc1nnc(NC(=O)CSc2nnc(Cc3cccn3C)n2-c2ccc(F)cc2)s1
0.4	11.0	CC(=O)N(Cc1ccco1)C1(C(=O)NC2CCCCC2)CCCCC1
3.1	6.0	Cc1cc(C)n(C(=O)c2ccncc2)n1
x	-125.0	CCOC(=O)c1cc(-c2ccc(N(CC)CC)cc2)no1
x	16.0	CCOc1ccccc1OC(=O)NN
-0.8	16.0	CCc1ccc(NC(=O)c2ccc3c(=O)n4c(nc3c2)CCCCC4)cc1
x	22.0	CCn1c2ccccc2c2nc3ccccc3nc21
-0.4	x	COc1cc(OC)cc(C(=O)Nn2c(-c3cc(OC)c(OC)c(OC)c3)nc3ccccc3c2=O)c1
x	15.0	O=C1Nc2ccccc2OC1CC(=O)N1CCCC1 (stereo not drawn)
-1.6	x	Cc1cn(CCC(=O)NCc2c(F)cccc2Cl)c2ccccc12
x	-14.0	CN(C)S(=O)(=O)c1ccc(C(=O)Nc2nc3c(s2)CCCC3)cc1
-2.2	x	CCCC(=O)c1cc2ccccc2oc1=O
-0.9	x	COc1ccc(S(=O)(=O)Nc2ccc(S(=O)(=O)Nc3cc(C)on3)cc2)cc1
0.8	-16.0	COc1ccccc1C(=O)N/C(N)=N/c1nc2ccccc2o1
x	-7.0	CCc1ccc(NS(=O)(=O)c2ccc3c(c2)C(C)(C)C(=O)N3C)cc1
-3.5	x	O=C(Nc1ccc(Cl)cc1)OCc1noc(-c2cccs2)n1
x	-18.0	CS(=O)(=O)Nc1cccc(C(=O)OCC(=O)Nc2ccccc2F)c1
0.2	24.0	CC1CN(C(=O)CCC2CCCCC2)CC(C)O1 (stereo not drawn)
x	-17.0	O=C(NCc1ccccn1)NCc1noc2ccccc12
x	-15.0	CC(=O)Nc1nc2sc(C)c(C)c2c(=O)s1
0.6	4.0	CCc1ccc(NS(=O)(=O)c2ccc3[nH]c(=O)ccc3c2)cc1
-5.6	15.0	O=C(NC1=NCCS1)c1ccccn1
0.3	x	C=C(C)[C@H]1CC=C(C(=O)O)CC1
-0.2	1.0	CC(=O)OC1CCS(=O)(=O)C1 (stereo not drawn)
-6.7	x	Cc1cc(C)nc(NS(=O)(=O)c2ccc(N3C(=O)c4ccccc4C3=O)cc2)n1
x	3.0	CCOC(=O)c1nc(C)sc1-c1ccnn1C(=O)c1ccc(OC)cc1
x	-9.0	O=C(COn1nnc2ccccc21)NCC1CCCCC1
-0.4	10.0	COc1cccc(-c2nn(CN3CCCC3)c(=S)n2C)c1
2.4	23.0	O=C(Oc1ccc(C(=S)N2CCCCC2)cc1)c1ccccc1
-1.1	x	Cc1nc(N2CCCC2)[nH]c(=O)c1CCC(C)C
0.1	x	N=c1scc(-c2ccccc2)n1-c1ccc(Cl)cc1Cl
x	-6.0	CCN(CCO)c1ccc(NC(=S)Nc2ccc(OC)cc2)cc1
x	-13.0	Cc1ccc(C)c(S(=O)(=O)N2CC3(C)CC2CC(C)(C)C3)c1 (stereo not drawn)
-0.6	-4.0	Clc1ccc(N2Cc3ccccc3C2)cc1Cl

# Further entries:
MgrA DNA FP	S aureus helic	SMILES
0.3	5.0	Cc1cc(N2C(=O)CCC2=O)n(-c2ccccc2)n1
-2.0	x	O=C(Nc1ccccc1C(=O)c1ccccc1)c1ccc(Cl)cc1
x	19.0	Cc1[nH]c2ccc(C(=O)NCCN3CCCCCC3)cc2c1C
-1.1	5.0	Cc1ccc(C)c(NC(=O)CC(Cc2ccccc2)C(=O)O)c1 (stereo not drawn)
x	14.0	O=C(COC(=O)C1CCC1)Nc1ccc(F)c(Cl)c1
-0.2	7.0	Cc1ccc(NC(=S)NCCCO)c(C)c1
-0.7	-16.0	CCCSc1nc2cc(C)c(C)cc2n1CC(C)O (stereo not drawn)
-3.7	x	CC(=O)c1ccc(Sc2ccc(Cl)cc2)c([N+](=O)[O-])c1
-1.0	x	CCNC(=S)Nc1sc2c(c1C#N)CCC(C)C2 (stereo not drawn)
x	-9.0	O=C(CSc1nc2ccccc2[nH]1)c1nnc(-c2ccc(Cl)cc2)o1
x	31.0	COc1ccccc1-c1cc(=O)n(CC(=O)N2CCC(C(N)=O)CC2)c2c1CCCC2
x	4.0	Cc1c(NC(=O)C23CC4CC(C)(CC(C)(C4)C2)C3)c(=O)n(-c2ccccc2)n1C
0.5	x	CCSc1nnc(NC(=O)c2cccc(C(=O)Nc3nnc(SCC)s3)n2)s1
x	-24.0	O=S(=O)(c1ccc(Oc2ncnc3sccc23)c(Cl)c1)N1CCOCC1
2.3	x	Cc1cc(C(=O)NCc2cc(F)cc3c2OCOC3)nn1C
x	-23.0	Clc1ccc(N2CCN(C3=Cc4ccccc4CC3)CC2)cc1Cl
x	-15.0	CCOC(=O)c1c(C)oc2c1c(C=NC1CCS(=O)(=O)C1)c(O)c1ccccc12 (stereo not drawn)
x	0.0	CCOC(=O)C(C)Sc1ncnc2sc3c(c12)CCCC3 (stereo not drawn)
x	7.0	COc1ccc(-c2noc(CNC(=O)NC3CCCCC3)n2)cc1
1.2	x	Cc1ccc(C(=O)OCCSc2ccc(C(F)(F)F)cn2)cc1
x	7.0	COc1ccc(C2OC(COc3ccccc3C)=NN2C(C)=O)cc1OC(C)=O (stereo not drawn)
-11.9	x	CCOCCOC(=O)C1=C(C)NC2=C(C(=O)CC(c3ccc(Cl)cc3)C2)C1c1cc(Cl)c(O)c(OC)c1 (stereo not drawn)
x	-21.0	N#Cc1c(N)n(-c2ccc(S(N)(=O)=O)cc2)c2nc3ccccc3nc12
x	-5.0	COc1ccc(CN(C)C(=O)c2cc(C)on2)c(OC)c1
-1.1	x	c1ccc(CSC2=NCCN2)cc1
5.0	7.0	CSc1nc2n(n1)C(=O)CC(C)(C)N2
1.7	-4.0	CCc1ccc(-c2nc(C(N)=O)c3[nH]c(=O)n(-c4ccccc4)c3n2)cc1
x	-17.0	CC1CC(=O)N(CC(=O)N2CCCCC2)c2ccccc2S1 (stereo not drawn)
x	5.0	CC12CCC(O)CC1=CCC1C2CCC2(C)/C(=N/N)CCC12 (stereo not drawn)
x	-8.0	COc1ccccc1NC(=O)c1ccccc1

# 15 successive records from above, quoted:
MgrA DNA FP	S aureus helic	SMILES
0.8	-2.0	CN(CC(=O)NCc1ccccc1)S(=O)(=O)c1ccc2nc(-c3ccccc3)[nH]c2c1
-1.2	8.0	Cc1onc(-c2ccccc2)c1C(=O)Oc1cccnc1
0.2	x	O=C1CC(c2ccc3c(c2)OCO3)CC2=C1C(c1ccc(C(F)(F)F)cc1)Nc1ccccc1N2 (stereo not drawn)
-2.8	1.0	CN(C(=O)CC1(CC(=O)O)CCCC1)C1CCCCC1
x	-8.0	CN(Cc1nc2ccccc2c(=O)[nH]1)Cc1nc2scc(-c3cccs3)c2c(=O)[nH]1
x	-10.0	CCc1ccc(C(=O)CN2C(=O)C(C)N(c3ccc(C)cc3)C2=O)cc1 (stereo not drawn)
0.5	-17.0	CCN1C(=O)/C(=C/C=C2/Sc3ccccc3N2CC)SC1=S
x	-5.0	Cc1cc(-c2csc(-c3ccccc3)n2)c(C)n1-c1cccc(S(=O)(=O)N2CCOCC2)c1
-2.6	21.0	O=C1C=C(NCc2ccccc2)C2(CCCCC2)O1
2.1	3.0	CC(C)OCC(O)Cn1c(N2CCCCCC2)nc2c1c(=O)n(C)c(=O)n2C (stereo not drawn)
1.9	7.0	O=C1Nc2ccccc2C(O)(C(=O)N2CCCCC2)N1c1ccccc1 (stereo not drawn)
-2.1	x	Fc1cccc(-c2csc(COc3ccccc3Cl)n2)c1
0.1	4.0	Cc1cc(NC(=O)C2CCCCC2)no1
0.6	14.0	C=CCn1c(=O)[nH]c(=O)n(CC=C)c1=O
0.4	-13.0	COc1ccc(C2OCc3ccccc3N2C(=O)c2cccc(OC)c2)cc1 (stereo not drawn)

# Other entries:
MgrA DNA FP	S aureus helic	SMILES
3.5	-5.0	O=C(C1=C2Sc3ccccc3N2CC(C(=O)c2ccccc2)C1)c1ccccc1 (stereo not drawn)
x	-44.0	Cc1oc(C)c2c(=O)ccc3c(c12)OC(N)=C(C#N)C3c1ccc(Br)cc1 (stereo not drawn)
x	-15.0	CN(Cc1ccccc1)C(=O)Nc1noc2c1COc1ccccc1-2
x	-17.0	CC1CCC(C(C)C)C(OCC(O)CNC(C)C)C1 (stereo not drawn)
-1.6	x	CS(=O)(=O)/C(C#N)=C/c1cccn1S(=O)(=O)c1ccccc1
0.6	9.0	O=C(/C=C\c1ccco1)Nc1ccc(N2CCN(C(=O)c3ccccc3)CC2)cc1
x	-15.0	CCn1c(=O)c2cc(C(=O)N(CCC(C)C)Cc3ccco3)sc2c2ccccc21
x	-3.0	COC(=O)c1c(C)[nH]c(C(=O)C(C)OC(=O)c2cc(S(=O)(=O)N3CCOCC3)ccc2F)c1C (stereo not drawn)
x	-1.0	Cc1nn(-c2ccccc2)c(C)c1P(=O)(c1ccccc1)N(C)C (stereo not drawn)
-1.1	x	COc1ccccc1CC(=O)Nc1ccc2ccccc2n1
5.5	x	O=C1O[C@H](C(O)CO)[C@H](O)C1O (stereo partly drawn)
x	-20.0	NNC(=O)CCN1CCN(Cc2ccccc2)CC1
x	-7.0	O=C(CC12CC3CC(CC(C3)C1)C2)OCC(O)CN1CCOCC1 (stereo not drawn)
-0.8	x	CCOC(=O)c1ccc(-n2c(=S)[nH]c3ccccc32)cc1
-0.1	11.0	CCNC(=O)Nc1ccccc1C(=O)OC
x	3.0	c1coc(CNCC2CCCO2)c1 (stereo not drawn)
-0.9	x	COC(=O)CNCC(=O)OC
-4.3	-1.0	O=C(O)c1cc(C2CC2)on1
x	9.0	O=C(CC(c1ccc(F)cc1)c1ccco1)Nc1nccs1 (stereo not drawn)
x	-13.0	CCn1cc(C(=O)N2CCCc3ccccc32)c(=O)c2ccc(C)nc21
0.8	11.0	COc1ccc(C2Nc3ccccc3-c3cc(C)nn32)cc1 (stereo not drawn)
x	-23.0	N#C/C(=N\Nc1ccc(F)cc1)C(N)=S
x	8.0	Cc1ccc(S(=O)(=O)N2CCC(C(=O)N=Nc3c(O)[nH]c4ccccc34)CC2)cc1
-1.6	1.0	O=C(NC(NC1=NCCS1)(C(F)(F)F)C(F)(F)F)c1ccco1
x	8.0	Cn1ccsc1=NC(=O)CCCc1c[nH]c2ccccc12
x	11.0	COc1ccc(S(=O)(=O)Nc2cccc(-c3nnco3)c2)cc1OC
x	17.0	O=C(CS(=O)(=O)c1c[nH]c2ccccc12)N1CCN(c2ccccc2)CC1
x	5.0	O=C(O)/C=C/c1cc(Br)ccc1OC(F)F
-1.0	x	COc1ccccc1NC(=S)Nc1ccc(OC)c(OC)c1
x	15.0	CN1C(=O)c2ccccc2C(C(=O)O)C1c1c[nH]c2ccccc12 (stereo not drawn)
1.4	4.0	O=C(CN1c2cccc3cccc(c23)S1(=O)=O)N1CCCCC1
-2.6	13.0	CC(C)(C)OC(=O)N1CCC(C(=O)N2CCCCC2)CC1
x	1.0	Cc1nn(C(C)C(=O)NCCCN2CC(C)CC(C)C2)c(=O)c2c1sc1ccccc12 (stereo not drawn)
-3.2	8.0	CCC(=O)NCC1COc2ccccc2O1 (stereo not drawn)
x	-2.0	Cc1ccc(-c2cc(C(=O)Nc3cccc(C#N)c3)c3ccccc3n2)o1
0.9	9.0	CC1(C)CC(=O)C(C(N)=NC(=O)c2ccccc2)=C(O)C1
x	-30.0	COC(=O)CC1=NN(c2nc(C)cc(C)n2)C(=O)C1
x	-6.0	Cc1cc(NC(=O)CSc2nnc(COc3ccc(Cl)cc3C)n2C2CCCCC2)no1
1.0	x	CCOC(=O)c1sc(NC(=O)CSc2nnc3ccccn23)c(C(=O)OCC)c1C

# These rows are one share of the data; rates above refer to the full screens.
